# Sfp inh: inhibitors of Bacillus subtilis Sfp phosphopantetheinyl transferase | 310,000 tested, 3.5% active | Biochemical Sfp PPTase activity, qHTS | Potency, µM, for the others: max response, negative = inhibition, hits mostly inhibitors | AID 1490 | Q9F4F7; active = well fitted inhibition curve with a large enough effect; inconclusive = small, poorly fitted or top-dose-only effect, or another doubt; inactive = no such curve, though single readings can be large or run the other way;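 also: the enzyme is Sfp with the accession as filed and its product quenches rhodamine fluorescence; potency is read from the fitted curve at half-maximal effect; 0% = enzyme reaction without inhibitor and -100% = no enzyme wells; top concentration of the series not given in the record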
#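 Fluorescence-quenching assay: 15 nM Sfp-PPTase preincubated 15 min at room temperature with compound, then 5 uM rhodamine-CoA and 12.5 uM BHQ-2-labelled YbbR peptide added. Fluorescence (ex 525/em 598 nm) read at start and after 30 min; difference gives rate.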
# ClpP mod: qHTS Assay for Activators of ClpP. ATP-dependent Clp protease proteolytic subunit (Bacillus subtilis (strain 168)), P80244. purified B. subtilis ClpP, FRET peptide cleavage, 20 min. Potency, µM (top dose mostly 57.5 µM), for inactives: top-dose activity change, negative = active. 340,000 tested, 1.9% active. AID 651965, 2013; active = well fitted falling curve with a large enough effect; inconclusive = small, poorly fitted or top-dose-only effect; inactive = no such curve, though single readings can be large or run the other way; also: potency is read from the fitted curve at half-maximal effect; the source files actives as falling curves though it sought activators and does not explain the sign; nearly all actives have a fitted effect of over 65% in size; many hits overshoot -100%
# Target sequence (P80244 whole entry, looked up): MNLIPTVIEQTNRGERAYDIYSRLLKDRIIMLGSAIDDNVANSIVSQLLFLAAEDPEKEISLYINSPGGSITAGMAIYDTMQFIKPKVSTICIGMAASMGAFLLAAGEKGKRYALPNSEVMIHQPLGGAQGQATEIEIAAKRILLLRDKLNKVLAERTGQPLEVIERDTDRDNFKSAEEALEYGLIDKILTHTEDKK
#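 FRET quenching reversal measured ClpP activation: 10 microg/mL B. subtilis ClpP at pH 8 with the FRET-FV decapeptide, read at 430 nm after 320 nm excitation. The 20-min minus 0-min signal was scaled between DMSO/no-enzyme wells and ADEP (5.8 microM final).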
# PINK1 modulator: modulators of PINK1 expression; Potency, µM (doses to about 76.6 µM), without a hit: at the top dose activation (PINK1 increase), hits mostly activators; AID 624263; PINK1 immunofluorescence, high-content cytometry, 24 h; 410,000 tested, 0.2% active; active = well fitted activation curve with a large enough effect; inconclusive = small, poorly fitted or top-dose-only effect; inactive = flat fitted curve, though single readings scatter; cell line not stated here;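 also: potency is read from the fitted curve at half-maximal effect; % of control where 0% means no effect; nearly all actives have a fitted effect of over 65% in size; a mitochondrial uncoupler was the plate control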
#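 Stable cell line treated 24 h with compounds at 5 concentrations (CCCP controls), then fixed and immunostained for PINK1 plus nuclear and cell stains; PINK1 immunofluorescence quantified by laser-scanning microplate cytometry.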
# TRPML1 agonist: agonists of human TRPML1 channel; Q9GZU1; TRPML1-expressing cells, Ca2+ dye fluorescence, FDSS; host cell line not named in the record; reference of the full effect not given here; activation, % (concentration not given with the values); 410,000 tested, 0.12% active; in the data active = activation above about 50%; inconclusive = about 30% to 50%; inactive = below about 30%; also: 0% is about no effect; the text of the record puts the active cut at 80%
#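 Agonist activity was taken from a 110 s kinetic Ca2+ dye read on the FDSS after pinning compounds onto TRPML1-DL cells. The cells were seeded at 1,500/well with Tet inducer, incubated about 16 h, then dye-loaded at room temperature.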
# Menin-MLL FL inh: menin-MLL binding inhibition, fluorescein peptide | 290,000 tested, under 10 active | Fluorescence polarization, fluorescein-MLL peptide displacement from menin | FP activity change, % at 61.4 µM | AID 1766; inconclusive = falling polarisation curve, or a change in total fluorescence; inactive = total fluorescence flat and polarisation flat or rising; no compound was filed as active; the % refers to the polarisation; negative = inhibition;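 also: % of control where 0% means no effect; inhibitors lower the polarisation; unlabelled MLL peptide was the positive control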
# TRPML1 blocker: blocks the human TRPML1 channel. TRPML1-inducible cells, Ca2+ dye fluorescence, FDSS; active compounds read low; inhibition of EC80 agonist-evoked calcium signal. 390,000 tested, 0.02% active. Q9GZU1. AID 624415. activity change, negative = inhibition, % (no concentration beside the values); in the data active means activity change below about -50%; inconclusive means about -30% to -50%; inactive means above about -30%;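 also: stimulus is agonist 54-4 at its EC80 concentration; % is scaled to controls: 0 for no effect and ±100 for the full control effect; compound concentration not given in the record; the text of the record puts the active cut at -80%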
#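 TRPML1-DL cells, Tet-induced overnight (~16 h, 37 °C) at 1,500 cells/well, were loaded with Ca8 no-wash dye plus quencher for 45-90 min at room temperature. Compounds were pinned during FDSS kinetic reading; agonist 54-4 at EC80 (4 uM final) then added.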
# TRPV1 potentiator: enhances activation of the human vanilloid receptor TRPV1 | 320,000 tested, 0.02% active | AID 540277 | potentiation, % at 8.33 µM | TRPV1-expressing cells, Fluo-8 calcium influx, capsaicin EC20 potentiation; host cell line not named in the record; control for the full effect not named in the record; active means potentiation above 80%; inconclusive means 30% to 80%; inactive means below 30%; also: 0% is about no effect
# Target sequence (Q8NER1 whole entry, looked up): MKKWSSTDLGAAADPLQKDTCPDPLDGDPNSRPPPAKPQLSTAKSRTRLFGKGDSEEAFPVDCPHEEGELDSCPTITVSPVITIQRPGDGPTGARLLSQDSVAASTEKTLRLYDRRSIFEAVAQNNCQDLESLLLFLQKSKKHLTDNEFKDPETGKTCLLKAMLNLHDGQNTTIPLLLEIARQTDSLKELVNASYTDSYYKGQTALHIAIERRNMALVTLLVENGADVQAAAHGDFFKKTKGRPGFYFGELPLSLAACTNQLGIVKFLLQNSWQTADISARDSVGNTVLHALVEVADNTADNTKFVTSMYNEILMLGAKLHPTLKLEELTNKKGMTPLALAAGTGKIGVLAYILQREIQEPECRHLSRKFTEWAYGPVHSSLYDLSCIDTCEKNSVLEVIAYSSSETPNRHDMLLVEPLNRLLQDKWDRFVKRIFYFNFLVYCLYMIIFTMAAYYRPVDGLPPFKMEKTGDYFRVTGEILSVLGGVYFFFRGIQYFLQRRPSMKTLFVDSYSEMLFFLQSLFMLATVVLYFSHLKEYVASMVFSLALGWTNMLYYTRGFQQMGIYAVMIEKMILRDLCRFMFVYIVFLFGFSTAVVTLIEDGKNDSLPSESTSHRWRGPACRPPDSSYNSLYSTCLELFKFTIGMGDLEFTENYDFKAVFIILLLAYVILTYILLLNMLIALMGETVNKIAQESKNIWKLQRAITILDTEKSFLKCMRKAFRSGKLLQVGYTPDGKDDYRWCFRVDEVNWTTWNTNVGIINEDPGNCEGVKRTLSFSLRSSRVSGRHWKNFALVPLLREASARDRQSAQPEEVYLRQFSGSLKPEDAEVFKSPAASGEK
#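 TRPV1-expressing cells were cultured overnight at 35.5C and loaded with Fluo-8 calcium dye for 40 to 90 min at room temperature. After a 10 s baseline, compound was added and calcium influx was read kinetically for 3 min (ex 480/em 520 nm).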
# * = called active by the depositor; ? = inconclusive; . = not tested or not shown; & = joins results of further samples; [ ] = dose if it differs, or a comment.
SMILES,Sfp inh,ClpP mod,PINK1 modulator,TRPML1 agonist,Menin-MLL FL inh,TRPML1 blocker,TRPV1 potentiator
COc1cc(/C=C(/C#N)c2nc3ccccc3[nH]2)ccc1OCC(=O)Nc1ccccc1C,?,1.8%,11%,-0.4,-25,-6,-1
O=C(CSc1nc2ccc([N+](=O)[O-])cc2[nH]1)NC1CCCCCC1,23%,-2.4%,14µM*,1.3,2.9,12,-10
CCc1ccc(/C=C2/Sc3ccccc3N(CC(=O)NCCCN3CCOCC3)C2=O)cc1,-26%,0.4%,1.3%,1.4,-18,3,3
COc1cccc(-c2nc(NCc3cccs3)c3ccccc3n2)c1,15%,.,0.0%,.,0.0,.,.
O=C(CNCCO)N1CCc2ccccc21,-6%,-2.2%,1.8%,-0.7,0.0,-11,-6
COc1ccccc1NC(=O)C(NC(=O)OC(C)(C)C)C(C)OCc1ccccc1 (stereo not given),3%,0.5%,3.2%[38.3 µM],2.9,2.6,7,-6
OCC[C@@H]1C[C@H](O)[C@@H](O)[C@@]2(OCc3cc(C(F)(F)F)ccc32)O1,.,2.0%,1.8%,-0.6,.,0,.
COc1ccc(Cl)c(NCCC(=O)O)c1,-1%,3.5%,.,0.0,-1.1,-9,-11
CC(C)(C)c1ccc(C(=O)NC(CC(=O)O)c2ccc(OC3CCCC3)cc2)cc1 (stereo not given),12%,-2.4%,-0.3%,-0.3,4.0,-12,3
Cc1ccc(/C=C/C(=O)Nc2nccs2)o1,?,-3.6%,0.4%,0.0,.,-21,-11
C[C@@H]1C=C(C(=O)N2CCN(Cc3ccc4c(c3)OCO4)CC2)O[C@H](OCCCCO)C1,-18%,0.3%,-1.2%,2.6,-4.4,3,19
CC(Oc1cc(F)ccc1[N+](=O)[O-])C(=O)Nc1ccc(S(=O)(=O)N2CCCC2)cc1 (stereo not given),15%,-1.1%,-1.7%,0.0,1.0,6,3
O=C(NCCCCc1ccccc1)c1ccccc1,3%,0.1%,-0.4%,-0.3,-1.2,-7,-7
O=C(COC(=O)c1ccccc1O)NC12CC3CC(CC(C3)C1)C2,.,3.0%,?,1.4,.,7,.
CCOc1ccccc1C(=O)Nn1c(C2CCC2)nc2ccccc2c1=O,12%,0.2%,24%[38.3 µM],1.7,0.3,19,17
Cc1ccccc1C(=O)Nc1ccccc1,5%,-0.2%,0.5%,-0.2,2.1,-12,-9
CC1CCC(C(C)C)C(OC(=O)C[n+]2cc(-c3ccc(Cl)cc3)n3c2CCCCC3)C1 (stereo not given),-1%,.,?,2.2,-3.9,69,1
Cc1cc(C)c2oc(-c3cccc(NC(=O)COc4ccc(Cl)cc4C)c3C)nc2c1,.,-11%,0.4%,0.2,.,.,.
COc1cc(OC)c(NC(=O)CCc2c(C)nc3ncnn3c2C)cc1Cl,.,0.8%,0.6%,-1.0,.,-5,.
FC(F)(F)c1cnc(N2CCC(=NOCc3ccc(Cl)cc3)CC2)c(Cl)c1,4%,-4.0%,?,0.6,4.3,-4,-10
COC(=O)c1cc(NC(=O)c2cc(C(C)(C)C)nn2Cc2cccc(C)c2)ccc1N1CCOCC1,1%,?,0.7%,1.2,0.4,-3,-66
Cc1ccc(S(=O)(=O)N2CCCCC2)cc1C(=O)OC(C)C(=O)NCC1CCCCC1 (stereo not given),.,-1.8%,6.8%,0.2,.,10,-17
COc1ccc(N2C(=O)C(Cl)=C(Nc3ccc(OC)cc3OC)C2=O)cc1,-5%,.,2.8%,1.9,0.5,9,0
Cc1cccc(NC(=O)COc2ccc(Br)cc2)n1,-48%,-2.8%,7.6%[38.3 µM],1.0,-1.2,1,-4
COCCNC(=O)c1onc(CCl)c1C(=O)OC,16%,-0.8%,7.1%,0.1,0.9,22,2
COc1cccc(NC(=O)N2CCCC2C(=O)NCc2ccccc2F)c1 (stereo not given),3%,1.3%,-0.6%,2.9,8.3,-12,0
CCCn1c(C2CCCN2c2nc(-c3ccc(OC)cc3)cs2)nc2ccccc21 (stereo not given),89µM*,-3.0%,2.8%,1.7,2.9,24,6
CCc1nn(CC(=O)NC(C)CCc2ccccc2)c(=O)c2cc3c(OC)cccc3n12 (stereo not given),.,-3.3%,2.0%,-1.1,.,-2,.
O=C(N[C@@H](c1ccccc1)[C@@H]1C[C@H]1C(=O)NCc1ccccn1)OCc1ccccc1,5%&2%,-0.5%,0.7%,-0.1,2.3&0.7,27,3
CN(c1ccccc1)c1nc(N)c([N+](=O)[O-])c(Nc2ccccc2)n1,4%,-3.3%,4.3%,-0.3,-0.4,-15,5
COc1ccc(CCNC(=O)Cn2ccc3c(OC)cccc3c2=O)cc1OC,11%,-15%,-1.1%,0.5,5.3,5,11
CC12CCC(C1)C(C)(C)C2OC(=O)c1ccccc1C(=O)O (stereo not given),16%,-1.7%,-0.4%,-0.4,-1.0,-2,7
C/C(CCc1ccccc1)=N\NC(=O)C(=O)Nc1cccc(Cl)c1,14%,1.3%,4.2%,0.0,1.0,-5,?
Cc1ccc2c(c1)C(C)(C)[C@]1(C)NC(=O)CCN21,?,-1.3%,0.9%,-0.5,?,7,-6
COc1ccc(C(=O)NCCNc2nc3c(C)cccc3cc2C#N)cc1,.,4.1%,5.7%,-0.2,.,-1,.
Cc1ccc(Cc2cc(-c3ccc(C)cc3)n[nH]c2=O)cc1,-2%,.,9.2%,2.3,1.2,-5,17
CCOc1ccc(OCC)c(NC(=O)c2cc(C)nc3c2c(C)nn3-c2cccc(Cl)c2C)c1,.,-5.6%,1.0%,-0.4,.,26,.
COc1cc(NC(=O)CN(C)S(=O)(=O)c2ccc3c(c2)CC(C)N3C(C)=O)cc(OC)c1OC (stereo not given),12%,0.2%,-0.3%,-0.9,-7.5,1,-7
Cc1cc(C)c(C)c(OCCOCCN2CCOCC2)c1,-1%,-0.7%,-1.5%[38.3 µM],1.2,-0.2,-10,3
O=C1CCCN1c1ccc([N+](=O)[O-])cc1,.,-0.3%,3.4%,-0.3,.,17,.
CC1CC(C)CN(CC(=O)N2c3ccccc3CCc3ccccc32)C1 (stereo not given),-29%,-2.5%,-0.8%[38.3 µM],1.6,-0.9,9,19
COc1ccc(-c2coc3c(C(=O)N4CCN(C)CC4)cccc23)c(C)c1,.,1.8%,0.2%,-0.7,.,.,.
CCCCCCCCNC(=O)c1cccnc1SCC(=O)Nc1ccccc1OC,-12%,2.8%,?,3.9,-0.5,7,8
COCCNC(=S)N/N=C(\C)c1ccc(Cl)c(Cl)c1,6%,-0.1%,2.1%,1.4,-1.3,-10,27
COc1ccc(OC)c(N(CC(=O)Nc2ccc3c(c2)OCCO3)S(C)(=O)=O)c1,4%,1.4%,0.1%,-0.6,-1.1,-4,6
COc1ccccc1C(=O)Nc1ccc2nc(SCC(=O)N(C)c3ccccc3)sc2c1,.,4.1%,1.4%,0.1,.,17,.
CC12CN3CC(C)(CN(C1)C3c1ccccc1)C2O (stereo not given),18%,0.4%,-0.5%,0.0,-0.7,-3,1
CN(C)C(=O)CN1C(=O)c2cccc3cccc1c23,-21%,-4.0%,-0.5%,-0.5,3.0,-3,-25
Cc1ccc(-n2nnnc2-c2ccccc2Br)cc1,.,.,2.8%,-0.8,.,-5,.
O=C(Oc1ccc[nH]c1=O)C1CC1,.,-3.0%,-0.2%,0.3,.,8,.

# Other compounds follow.
SMILES,Sfp inh,ClpP mod,PINK1 modulator,TRPML1 agonist,Menin-MLL FL inh,TRPML1 blocker,TRPV1 potentiator
O=C(c1ccccc1)c1ccc2nc[nH]c2c1,14%,-6.5%,.,0.0,-2.0,6,7
COc1ccc2nc(C)cc(Nc3ccccc3O)c2c1,7%,0.0%,0.5%,0.3,-3.0,-7,-1
O=C1c2cccnc2C(O)N1C1CCCCC1 (stereo not given),2%,0.3%,5.6%[38.3 µM],1.0,1.2,-4,-15
O=C(O)C1=C[C@@H](c2ccc(Br)cc2)C[C@@H](OCCCCO)O1,.,1.3%,0.7%,0.3,.,3,.
O=S(=O)(Nc1ccccc1N1CCCC1)c1ccccc1C(F)(F)F,.,-1.7%,3.5%,0.1,.,-8,.
COc1ccc(NC(=O)/C(C#N)=C/c2ncc([N+](=O)[O-])n2C)c(OC)c1,-11%,.,2.1%,0.0,0.1,0,18
CN(NC(=O)c1ccccc1Cl)c1ncc(C(F)(F)F)cc1Cl,14%,.,6.0%,-0.1,1.4,-12,2
COc1ccc(-n2cnc3cc(C(=O)N4CCOCC4)ccc32)cc1,9%,-0.1%,-1.1%,0.3,-1.4,4,3
CN(C)S(=O)(=O)c1ccc(C(=O)Nc2c(C(=O)Nc3ccc(F)cc3)oc3ccccc23)cc1,.,-18%,1.0%,-0.6,.,27,.
CCOC(=O)c1cc(=O)c2ccc(OCC(=O)Nc3ccc(F)cc3)cc2o1,1%,1.9%,1.6%,0.8,0.5,-16,-14

# 2 entries picked at random from those above:
SMILES,Sfp inh,ClpP mod,PINK1 modulator,TRPML1 agonist,Menin-MLL FL inh,TRPML1 blocker,TRPV1 potentiator
O=C1c2cccnc2C(O)N1C1CCCCC1 (stereo not given),2%,0.3%,5.6%[38.3 µM],1.0,1.2,-4,-15
COc1ccc(-n2cnc3cc(C(=O)N4CCOCC4)ccc32)cc1,9%,-0.1%,-1.1%,0.3,-1.4,4,3

# The results go on:
SMILES,Sfp inh,ClpP mod,PINK1 modulator,TRPML1 agonist,Menin-MLL FL inh,TRPML1 blocker,TRPV1 potentiator
O=C(NC(Cc1ccccc1)c1nc2ccccc2[nH]1)C1CC(=O)N(c2ccc3c(c2)OCCO3)C1 (stereo not given),?,0.2%,-1.6%,0.3,-2.1,-18,1
CN(CC(=O)Nc1ccc(S(N)(=O)=O)cc1)c1ccccc1,5%,-2.0%,-1.1%,0.1,-1.3,7,0
CCOC(=O)CN1N=C(c2ccc(Cl)cc2)CCC1=O,7%,0.0%,1.2%,-1.1,-1.2,-3,-16
O=C(CN1CCCC1)N1c2ccccc2C=Cc2ccccc21,7%,-0.8%,-1.0%,0.0,1.8,4,-9
CN(C)c1ccc(-c2nccc(Nc3ccc(F)cc3)n2)cc1,?,.,6.4%,.,5.5,.,.
COc1ccc(C(CCNCc2ccc(N(C)C)cc2)C(C)C)cc1 (stereo not given),0%,-3.2%,?,-1.3,2.5,-4,-22
CCN1C(=O)[C@H]2[C@@H](c3ccc(-c4ccc(C(C)=O)cc4)cc3)N[C@@](C)(C(=O)OC)[C@H]2C1=O,.,-10%,0.7%,0.3,.,-14,.
